Source: PubChem
Vaccinia inh = Vaccinia orthopox stage-specific inhibition. Vaccinia-infected cells, mCherry/Venus stage reporter fluorescence; active compounds read low; some inactives read as strong as hits. activity change (mCherry), % (test concentration not listed). 89,000 tested, 0.01% active. AID 1053133;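 active means mCherry past -33% and 40 or more points under the early reporter, replicates agreeing; inconclusive means past -33% without that gap or agreement; tested in A549 cells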;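 further: scaled between vehicle wells and reference inhibitor wells; 23 nL library stock went into each well; one replicate is shown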
Vaccinia inh Venus = second read-out of Vaccinia inh, no call of its own (marks repeat the call); activity change (Venus), %; measured here: Venus reporter, other viral stage;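 negative = less Venus signal; first of two replicates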
Numbers without * were called inactive; ? = inconclusive; / = not tested or not shown. The list is partial; rates above refer to the full screens.

nr	mol	Vaccinia inh	Vaccinia inh Venus
1	COc1ccc(CN(C)C[C@@H]2OCCCC[C@@H](C)Oc3ccc(NS(=O)(=O)c4ccc(Cl)cc4)cc3C(=O)N([C@H](C)CO)C[C@H]2C)cc1	?	/
2	C[C@H](CO)N1C[C@H](C)[C@@H](CN(C)S(=O)(=O)c2ccc(Cl)cc2)Oc2ccc(NC(=O)Cc3ccccc3)cc2C1=O	-19	-14
3	COc1ccc2c3c(n(C)c2c1)[C@H](CO)N(C(=O)C1CC1)CC31CCN(C(=O)CN(C)C)CC1	8	-2
4	CCC(=O)N(C)C[C@H]1Oc2ncc(C#CCc3ccccc3)cc2C(=O)N([C@H](C)CO)C[C@@H]1C	11	9
5	CC(C)CC#Cc1cnc2c(c1)C(=O)N([C@@H](C)CO)C[C@@H](C)[C@H](CN(C)C(=O)c1ccc3c(c1)OCO3)O2	?	/
6	C/C=C/c1cnc2c(c1)C(=O)N([C@H](C)CO)C[C@H](C)[C@@H](CN(C)C(=O)c1ccc3c(c1)OCO3)O2	0	-6
7	O=C(NCC(F)(F)F)[C@@H]1[C@@H](CO)[C@@H]2Cn3c(cccc3=O)[C@@H]2N1C(=O)C1CC1	5	6
8	CN(C)C(=O)C[C@H]1C=C[C@@H](NC(=O)C2CCC2)[C@@H](CO)O1	5	2
9	C[C@H]1CN([C@@H](C)CO)C(=O)Cc2cc(NC(=O)c3ccncc3)ccc2O[C@@H]1CN(C)C(=O)Nc1cccc2ccccc12	3	17
10	C[C@@H]1CN([C@H](C)CO)C(=O)c2cccc(NC(=O)c3ccncc3)c2O[C@H]1CN(C)Cc1ccc(Cl)c(Cl)c1	?	/
11	C[C@H]1CN([C@@H](C)CO)C(=O)c2cc(C#Cc3ccc(F)cc3)cnc2O[C@H]1CN(C)S(C)(=O)=O	10	0
12	CO[C@H]1CN(C)C(=O)c2ccc(NC(=O)Cc3ccccc3)cc2OC[C@@H](C)NC[C@@H]1C	-9	1
13	C[C@@H]1CN([C@@H](C)CO)C(=O)c2c(c3ccccc3n2C)-c2ccccc2CO[C@H]1CN(C)C(=O)[C@@H](Cc1ccccc1)N(C)C	?	/
14	C[C@@H]1CN([C@H](C)CO)C(=O)Cc2cc(NC(=O)Nc3ccc4c(c3)OCO4)ccc2O[C@@H]1CN(C)C(=O)Nc1cccc2ccccc12	13	11
15	Cc1ccc(S(=O)(=O)N(C)C[C@@H]2OCCCC[C@@H](C)Oc3ccc(NC(=O)c4ccncc4)cc3C(=O)N([C@@H](C)CO)C[C@@H]2C)cc1	6	6
16	CCNC(=O)C[C@@H]1CC[C@@H]2[C@H](COC[C@H](O)CN2C(=O)Nc2c(C)noc2C)O1	-1	-1
17	COCCCN1C(=O)[C@@]2(Cc3ccccc31)c1ccccc1C(=O)N(C1CCCCC1)[C@H]2c1ccc(CO)cc1	25	14
18	C[C@@H]1CN([C@@H](C)CO)C(=O)c2cc(NC(=O)Cc3ccccc3)ccc2O[C@H]1CN(C)C(=O)Nc1cccc2ccccc12	8	9
19	COc1ccccc1C#Cc1cnc2c(c1)C(=O)N([C@@H](C)CO)C[C@@H](C)[C@H](CN(C)C(=O)CN(C)C)O2	-5	0
20	C[C@@H]1CN([C@@H](C)CO)C(=O)Cc2cc(NC(=O)c3ccncc3)ccc2O[C@H]1CN(C)S(=O)(=O)c1cccs1	21	15
21	CCCNC(=O)[C@@H]1[C@@H](CO)[C@@H]2Cn3c(ccc(-c4ccccc4)c3=O)[C@@H]2N1C(=O)C1CC1	9	5
22	COc1ccc(CN(C)C[C@@H]2OCCCC[C@@H](C)Oc3ccc(NC(=O)c4ccccc4)cc3C(=O)N([C@@H](C)CO)C[C@H]2C)cc1	?	/
23	CO[C@@H]1CN(C)C(=O)c2ccc(NC(=O)Cc3ccccc3)cc2OC[C@@H](C)N(C)C[C@@H]1C	20	18
24	COCC#Cc1cnc2c(c1)C(=O)N([C@@H](C)CO)C[C@H](C)[C@H](CN(C)S(=O)(=O)c1cccc(OC)c1)O2	6	-3
25	C[C@@H]1CN([C@H](C)CO)C(=O)c2cccc(NC(=O)Nc3ccc(F)cc3)c2O[C@@H]1CN(C)Cc1ccccc1	2	0
26	COc1ccccc1-c1ccc2c(c1)O[C@@H](CN(C)S(=O)(=O)c1ccccc1)[C@@H](C)CN([C@@H](C)CO)S2(=O)=O	-33	-17
27	COc1cccc(S(=O)(=O)N2C[C@@H](O)COC[C@@H]3O[C@H](CC(=O)N4CCOCC4)CC[C@H]32)c1	9	-3
28	O=C(C[C@@H]1C[C@H]2c3cc(NC(=O)C4CCOCC4)ccc3O[C@H]2[C@H](CO)O1)NCc1ccc2c(c1)OCO2	-7	5
29	Cc1noc(C)c1NC(=O)N(C)C[C@H]1Oc2ccc(NC(=O)CCC(F)(F)F)cc2C(=O)N([C@@H](C)CO)C[C@H]1C	-8	-5
30	O=C(CC(F)(F)F)N1C[C@@H]2[C@H](c3ccccc31)[C@H](CO)N2C(=O)c1ccncc1	-3	14

nr	mol	Vaccinia inh	Vaccinia inh Venus
31	C[C@@H]1CCCCO[C@@H](CN(C)Cc2ccc(C(=O)O)cc2)[C@H](C)CN([C@H](C)CO)C(=O)c2cc(NC(=O)Nc3ccccc3)ccc2O1	26	18
32	C[C@@H]1CN([C@H](C)CO)C(=O)c2cccc(NC(=O)Nc3ccc(F)cc3)c2O[C@@H]1CN(C)S(=O)(=O)c1cccs1	-22	-23
33	CC(C)NC(=O)N(C)C[C@@H]1Oc2c(NC(=O)C3CCOCC3)cccc2C(=O)N([C@@H](C)CO)C[C@@H]1C	8	8
34	C[C@H](CO)N1C[C@H](C)[C@@H](CN(C)C(=O)c2ccncc2)Oc2cc(C3=CCCCC3)ccc2S1(=O)=O	-9	-10
35	O=C(Nc1cccc(Cl)c1)N[C@H]1CC[C@H](CCn2cc(Cc3ccccc3)nn2)O[C@@H]1CO	-25	-18
36	C[C@H](CO)N1C[C@H](C)[C@@H](CN(C)C(=O)Nc2ccc(F)cc2)Oc2cc(C#CC3(O)CCCC3)ccc2S1(=O)=O	-6	-2
37	CC(C)NC(=O)Nc1cccc2c1O[C@H](CN(C)C(=O)Nc1ccc(F)cc1)[C@H](C)CN([C@H](C)CO)C2=O	-4	3
38	CCC(=O)N(C)C[C@@H]1Oc2ncc(-c3cccc(OC)c3)cc2C(=O)N([C@@H](C)CO)C[C@H]1C	28	8
39	CC(C)C#Cc1ccc([C@@H]2[C@H](CO)N3CCCCN(C(=O)Nc4ccccc4)C[C@@H]23)cc1	?	/
40	COc1ccc(CN(C)C[C@@H]2OCCCC[C@H](C)Oc3ccc(NS(=O)(=O)c4ccc(C)cc4)cc3C(=O)N([C@@H](C)CO)C[C@H]2C)cc1	?	/
41	COc1ccccc1-c1ccc([C@H]2[C@@H](CO)N(C(=O)C3CC3)C23CN(C(C)=O)C3)cc1	0	10
42	COC(=O)[C@@H]1[C@@H](CO)[C@@H]2Cn3c(ccc(C4=CCCC4)c3=O)[C@@H]2N1C(=O)C1CCC1	15	12
43	CO[C@H]1CC[C@@H]2CCOc3c(C#N)cccc3C(=O)N(C)C[C@H](OC)[C@@H](C)C(=O)N(C)C[C@H]1O2	16	15
44	COc1cccc(C#Cc2cnc3c(c2)C(=O)N([C@H](C)CO)C[C@H](C)[C@@H](CN(C)C(=O)C2CCOCC2)O3)c1	3	5
45	CC(C)NC(=O)N(C)C[C@@H]1Oc2c(NC(=O)c3nc4ccccc4s3)cccc2C(=O)N([C@@H](C)CO)C[C@H]1C	24	12
46	C[C@H]1CN([C@@H](C)CO)C(=O)c2cccc(NS(=O)(=O)c3ccccc3)c2O[C@H]1CN(C)S(C)(=O)=O	18	11
47	CCC(=O)N(C)C[C@H]1Oc2cc(-c3ccc(F)cc3)ccc2S(=O)(=O)N([C@H](C)CO)C[C@@H]1C	-1	2
48	CCC(=O)N1[C@H](CO)[C@@H]2c3ccccc3N(C(=O)Nc3cccc(Cl)c3)C[C@@H]21	2	3
49	C[C@H]1CN([C@@H](C)CO)C(=O)Cc2cc(NC(=O)CCC(F)(F)F)ccc2O[C@@H]1CN(C)Cc1ccc(C(F)(F)F)cc1	-16	-13
50	CNC[C@H]1OCCCC[C@H](C)Oc2ccc(NS(=O)(=O)c3ccc(F)cc3)cc2C(=O)N([C@@H](C)CO)C[C@@H]1C	0	9
51	O=C(C[C@H]1C=C[C@@H](NS(=O)(=O)c2ccc(F)cc2)[C@H](CO)O1)NC1CCC1	0	7
52	COc1ccc(S(=O)(=O)N[C@H]2CC[C@H](CC(=O)NCc3ccccc3F)O[C@H]2CO)cc1	8	4
53	C[C@@H]1CN([C@H](C)CO)C(=O)c2cc(NS(=O)(=O)c3ccc(F)cc3)ccc2O[C@@H](C)CCCCO[C@H]1CN(C)S(=O)(=O)c1ccc(F)cc1	-30	-25
54	Cn1cnc(S(=O)(=O)N2CCCCN3[C@H](C2)[C@@H](c2ccc(-c4cccc(F)c4)cc2)[C@@H]3CO)c1	-30	-33
55	CNC[C@@H]1OCCCC[C@H](C)Oc2ccc(NC(=O)Cc3ccccc3)cc2C(=O)N([C@H](C)CO)C[C@@H]1C	0	-1
56	C[C@H]1CN([C@@H](C)CO)C(=O)c2cc(NC(=O)CCC(F)(F)F)ccc2O[C@H]1CN(C)CC1CCCCC1	2	0
57	C[C@@H]1CN([C@H](C)CO)C(=O)c2cccc(NC(=O)c3ccncc3)c2O[C@H]1CN(C)S(=O)(=O)c1ccc(F)cc1	4	2
58	COc1ccc(NC(=O)Nc2ccc3c(c2)CC(=O)N([C@@H](C)CO)C[C@H](C)[C@@H](CN(C)Cc2ccc(-c4ccccc4)cc2)O3)cc1	-32	-21
59	CC(C)(C)[S@](=O)N1Cc2cc(C(=O)NCc3ccccc3F)nc(-c3cccc(-c4cccnc4)c3)c2[C@@H]1CCO	-26	-14
60	CS(=O)(=O)Nc1ccc2c(c1)[C@H]1C[C@@H](CC(=O)NCc3ccc(Oc4ccccc4)cc3)O[C@@H](CO)[C@H]1O2	-3	-2

Shown with two lines to a compound: part of the list above.
Each structure is followed by: Vaccinia inh | Vaccinia inh Venus
[43] CO[C@H]1CC[C@@H]2CCOc3c(C#N)cccc3C(=O)N(C)C[C@H](OC)[C@@H](C)C(=O)N(C)C[C@H]1O2
    16 | 15
[44] COc1cccc(C#Cc2cnc3c(c2)C(=O)N([C@H](C)CO)C[C@H](C)[C@@H](CN(C)C(=O)C2CCOCC2)O3)c1
    3 | 5
[45] CC(C)NC(=O)N(C)C[C@@H]1Oc2c(NC(=O)c3nc4ccccc4s3)cccc2C(=O)N([C@@H](C)CO)C[C@H]1C
    24 | 12
[46] C[C@H]1CN([C@@H](C)CO)C(=O)c2cccc(NS(=O)(=O)c3ccccc3)c2O[C@H]1CN(C)S(C)(=O)=O
    18 | 11
[47] CCC(=O)N(C)C[C@H]1Oc2cc(-c3ccc(F)cc3)ccc2S(=O)(=O)N([C@H](C)CO)C[C@@H]1C
    -1 | 2
[48] CCC(=O)N1[C@H](CO)[C@@H]2c3ccccc3N(C(=O)Nc3cccc(Cl)c3)C[C@@H]21
    2 | 3

Gathered by group: the entries above with a thiophene ring, fused or not
nr	mol	Vaccinia inh	Vaccinia inh Venus
20	C[C@@H]1CN([C@@H](C)CO)C(=O)Cc2cc(NC(=O)c3ccncc3)ccc2O[C@H]1CN(C)S(=O)(=O)c1cccs1	21	15
32	C[C@@H]1CN([C@H](C)CO)C(=O)c2cccc(NC(=O)Nc3ccc(F)cc3)c2O[C@@H]1CN(C)S(=O)(=O)c1cccs1	-22	-23

Continued:
nr	mol	Vaccinia inh	Vaccinia inh Venus
61	O=C(c1cccnc1)N1CC2(C1)[C@H](c1ccccc1)[C@@H](CO)N2CC1CC1	-5	-3
62	CCCC#Cc1ccc2c(c1)[C@@H]1[C@@H](CCN1S(=O)(=O)c1ccccc1OC)[C@@H](CO)N2	-14	-2
63	Cc1noc(C)c1NC(=O)Nc1ccc2c(c1)C(=O)N([C@H](C)CO)C[C@H](C)[C@@H](CN(C)Cc1ccncc1)O2	14	4
64	N#C[C@H]1[C@@H](c2ccccc2)[C@@H](CO)N1C(=O)c1cccnc1	15	14
65	C[C@@H]1CN([C@H](C)CO)C(=O)c2cccc(NC(=O)c3ccncc3)c2O[C@@H]1CN(C)C(=O)Nc1ccc2c(c1)OCO2	4	7
66	C[C@@H]1CCCCO[C@H](CN(C)C(=O)c2ccncc2)[C@H](C)CN([C@H](C)CO)C(=O)c2cc(NS(=O)(=O)c3ccc(F)cc3)ccc2O1	28	10
67	COc1ccccc1C#Cc1ccc2c(c1)[C@@H]1[C@@H](CCN1C(=O)c1ccncc1)[C@H](CO)N2	?	/
68	O=C(C[C@H]1C=C[C@@H](NS(=O)(=O)c2cccc(F)c2)[C@@H](CO)O1)N1CCCCC1	-5	-4
69	O=C(N[C@@H]1CC[C@H](CCn2cc(-c3ccccn3)nn2)O[C@H]1CO)c1ccccc1	-4	-1
70	C[C@H]1CN([C@@H](C)CO)C(=O)c2cc(NS(=O)(=O)c3cccs3)ccc2O[C@H]1CN(C)C(=O)Nc1cccc2ccccc12	28	21
71	Cc1cccc(S(=O)(=O)N2[C@@H]3CNC[C@H]2C3c2ccc(-c3cncnc3)cc2)c1 (some centres undefined)	11	17
72	CNC[C@H]1Oc2ncc(-c3cccc(F)c3)cc2C(=O)N([C@@H](C)CO)C[C@H]1C	?	/
73	C[C@@H]1CCCCO[C@H](CN(C)C(=O)NC2CCCCC2)[C@H](C)CN([C@H](C)CO)C(=O)c2cc(NC(=O)C3CCCCC3)ccc2O1	?	/
74	C[C@@H]1CCCCO[C@H](CN(C)C(=O)CCC(F)(F)F)[C@H](C)CN([C@@H](C)CO)C(=O)c2cc(NC(=O)c3ccccc3)ccc2O1	-27	-15
